Source: PubChem (National Center for Advancing Translational Sciences (NCATS))
Resorufin fluor – compounds fluorescent in resorufin spectral region | Compound fluorescence, resorufin region 547/598 nm, buffer; hits give high values | max dye-equivalent concentration, M | 59,000 tested, 0.04% active; active = above 10 nM dye equivalent; inconclusive = 1 to 10 nM; inactive = 1 nM or less; a few of its hits are not listed in these tables; also: highest value over a series up to 38 µM
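Compounds in 100 mM Tris buffer, pH 8.0, incubated 15 min at room temperature, then read with 547 nm excitation and 598 nm emission filters. Fluorescence was converted to dye-equivalent concentration using an on-plate six-point resorufin standard curve.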
A647 fluor – compound fluoresces in the A647 spectral region | 59,000 tested, under 10 active | AID 592 | max dye-equivalent concentration, M | Compound fluorescence, A647 channel (570/671 nm), Tris buffer; active means above 1 µM dye equivalent; inconclusive means 0.1 to 1 µM; inactive means 0.1 µM or less;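 also: values scaled relative to a standard on each plate; highest value over a series up to 38 µM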
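Spectral profiling of library compounds in pH 8.0 Tris: 15 min room-temperature incubation, single ex/em pair (570/671 nm), response normalized to Alexa 647 equivalents.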
AID923 – qHTS Assay for Allosteric/Competitive Inhibitors of Caspase-1: Spectroscopic Profiling in AFC Spectral Region; compound fluorescence, AFC spectral region (405/520 nm); almost no hit is shown here; Potency, µM (highest dose often 57.5 µM), for inactives: at the highest dose fluorescence increase, actives largely listed as activators; 75,000 tested, 1.1% active; AID 923, 2007; active = well fitted activation curve with a large enough effect; inconclusive = small, poorly fitted or top-dose-only effect;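 also: potency is read from the fitted curve at half-maximal effect; 0% is about no effect; scaled to a free AFC standard on each plate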
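Baseline compound fluorescence (AFC region, 405 nm ex/520 nm em) taken from the intercept of kinetic reads with 50 nM caspase-1 and 5 uM Ac-WEHD-AFC; normalized to an on-plate AFC standard curve; compounds titrated up to 57 uM.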
A488 autofl – compound fluoresces in the A488 spectral region; 59,000 tested, 0.1% active; AID 591; compound autofluorescence, A488 spectral region, dye equivalency; hits give high values; max dye equivalency, M; active = above 10 nM dye equivalent; inconclusive = 1 to 10 nM; inactive = 1 nM or less; about half of its hits are not listed in these tables;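 also: highest value over a series up to 38 µM; compound alone in buffer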
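Readout is A488 dye-equivalent concentration, calibrated by a per-plate six-point Alexa 488 series. Compounds in 100 mM Tris buffer pH 8.0 were incubated 15 min at room temperature. Plates were imaged using 480 nm excitation/540 nm emission filters.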
TSHR agonist – agonists of human thyroid stimulating hormone receptor; HEK293-CNG-TSHR cells (CNG channel as cAMP sensor), membrane potential dye, cAMP; P16473; AID 926; 73,000 tested, 0.48% active; Potency, µM (doses to about 57.1 µM), for inactives: top-dose activation, usual class: activators; active = well fitted activation curve of enough size with the parental cells flat; inconclusive = any curve in the parental cells; inactive = parental cells flat and receptor cells flat or falling; also: potency is read from the fitted curve at half-maximal effect; % of control where 0% means no effect; weak receptor curves with flat parental cells got no call and are not listed
Target sequence (P16473 whole entry, looked up): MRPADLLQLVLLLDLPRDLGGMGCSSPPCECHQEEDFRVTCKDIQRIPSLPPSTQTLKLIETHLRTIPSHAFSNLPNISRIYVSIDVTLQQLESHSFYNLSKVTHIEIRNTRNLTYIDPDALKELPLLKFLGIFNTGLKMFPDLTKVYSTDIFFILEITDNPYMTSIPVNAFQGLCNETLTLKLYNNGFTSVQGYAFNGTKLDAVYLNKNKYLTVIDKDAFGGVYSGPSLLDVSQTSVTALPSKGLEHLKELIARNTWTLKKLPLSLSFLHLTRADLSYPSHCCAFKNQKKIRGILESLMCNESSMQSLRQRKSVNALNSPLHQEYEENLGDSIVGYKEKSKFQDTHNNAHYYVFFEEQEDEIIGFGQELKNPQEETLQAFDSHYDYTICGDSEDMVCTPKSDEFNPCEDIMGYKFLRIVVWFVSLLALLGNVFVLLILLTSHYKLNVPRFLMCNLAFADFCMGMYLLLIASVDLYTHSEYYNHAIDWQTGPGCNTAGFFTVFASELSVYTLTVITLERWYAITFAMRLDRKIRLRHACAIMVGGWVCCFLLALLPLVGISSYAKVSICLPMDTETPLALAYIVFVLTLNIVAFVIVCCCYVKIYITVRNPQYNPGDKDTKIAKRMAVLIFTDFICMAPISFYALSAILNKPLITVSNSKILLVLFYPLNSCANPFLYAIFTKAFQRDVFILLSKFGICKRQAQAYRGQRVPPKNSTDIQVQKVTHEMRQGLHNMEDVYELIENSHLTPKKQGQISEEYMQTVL
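cAMP rise detected as CNG-channel membrane depolarization by fluorescent dye (emission 590 nm), 30 min after compound, following 60 min dye loading containing 100 uM RO 20-1724 at room temperature. Cells: TSHR/CNG HEK 293, with parental CNG HEK 293 as control.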
The depositor's hits bear a star; i = inactive; ? = inconclusive; . = no result given; & = joins results of further samples; [ ] = another dose, or the depositor's remark.

Values run as follows: Resorufin fluor | A647 fluor | AID923 | A488 autofl | TSHR agonist
Cc1ccc(C2C(=O)N(C3CCC(C)CC3)CC(=O)N2C2CC2)cc1 (stereo not drawn)
 : i | 1e-09 | -0.5% | i | 23.8%
CC(C)c1ccc(NC(=O)CCNS(=O)(=O)c2cccc3nonc23)cc1
 : i | 1e-09 | -0.5% | i | ?
Cc1nnc(SCC(=O)NCc2ccc3c(c2)OCO3)s1
 : i | 3.2e-09 | -0.9% | i | 6.0%
Cc1c(Cc2ccccc2)c(=O)oc2c(C)c(OCc3nn[nH]n3)ccc12
 : i | 2.46e-08 | -2.5% | i | 27.3%
CC(CN(C)Cc1ccccc1)OC(=O)C1COc2ccccc2O1 (stereo not drawn)
 : . | . | 1.6% | . | 1.3%
O=C(CSc1n[nH]c(-c2ccccc2Br)n1)NC(=O)NCc1ccco1
 : i | 1.94e-08 | -0.8% | i | -1.4%
COc1cc(C(=O)Nc2cnc(NC(=O)C(C)C)cc2C)cc(OC)c1OC
 : i | 1e-09 | 0.3% | i | -3.1%
O=S(=O)(Nc1nnc(-c2ccccc2)s1)c1ccc(Cl)cc1
 : . | . | -0.6% | . | 3.0%
CCOC(=O)CCC(=O)NCc1ccc2[nH]c(C)cc2c1
 : i | 8.9e-09 | 10.0% | i | -1.5%
CCOc1ccc(-n2c(Cc3cc(=O)[nH]c(=O)[nH]3)nnc2SC(C)C)cc1
 : i | 3.06e-08 | -0.3% | i | -0.3%
CCOC(=O)c1c(C)[nH]c(C(=O)OCC(=O)N2CCc3ccccc32)c1C
 : i | 2.4e-09 | -0.8% | i | -1.9%
O=C(Nc1nc2ccc(S(=O)(=O)N3CCCCC3)cc2s1)c1ccncc1
 : i | 7.18e-08 | 0.7% | i | -0.3%
O=C(CSc1ccc2c(c1)OCCO2)NCc1ccco1
 : i | 1.87e-08 | -0.9% | i | -1.7%[11.4 µM]
O=c1oc(-c2cc3ccccc3o2)nc2sc3c(c12)CCCC3
 : . | . | 4.3% | . | 3.4%
CCOc1ccc(C(=O)Nc2cc(C)on2)cc1
 : . | . | -1.1% | . | 4.2%
O=C(Nc1nc(-c2ccncc2)cs1)c1ccco1
 : i | 9e-09 | 1.1% | i | -3.4%
O=C(Oc1ccc2ccccc2c1)c1ccco1
 : i | 3.25e-08 | -0.8% | i | -1.1%
CCS(=O)(=O)CCSc1nc2ccccc2o1
 : i | 3.32e-08 | -0.1% | i | -3.8%
COCCn1c(SCC(=O)Nc2nnc(C)s2)nnc1-c1c[nH]c2ccccc12
 : i | 2.7e-09 | -0.9% | i | -18.1%
COc1cc2c(=O)n(-c3ccc(C)cc3)c(=O)n(CC(=O)c3ccc4c(c3)OCO4)c2cc1OC
 : i | 1e-09 | -1.7% | i | 1.2%[11.4 µM]
COc1ccc(C)cc1NC(=O)C1CC(=O)N(Cc2ccco2)C1 (stereo not drawn)
 : i | 4.62e-08 | -0.8% | i | -6.7%
N=c1sc2ccccc2n1-c1ccccc1
 : i | 1e-09 | 13.6% | i | 14.5%
CN(C1CCCCC1)S(=O)(=O)c1ccc2c(c1)c(=O)c(C(=O)NCCN1CCCC1)cn2C
 : . | . | 1.9% | . | 5.5%
O=C(CN1CCc2ccccc2C1)Nc1ccccc1N1CCCCCC1
 : i | 1e-09 | 2.2% | i | -1.8%
COc1nc(C)ccc1-c1noc(-c2ccncc2)n1
 : i | 1e-09 | 1.5% | i | -8.5%
C#CCSc1nnc(-c2c[nH]c3ccccc23)n1C
 : . | . | 2.5% | . | -0.9%
CO/N=C(\C(=O)N[C@@H]1C(=O)N2C(C(=O)O)=C(CSc3nc(=O)c(O)nn3C)CS[C@@H]12)c1csc(N)n1
 : i | 1e-09 | -0.5% | i | 1.9%
COc1ccc2c(c1)SC1=NCCS(=O)(=O)N12
 : i | 2.5e-09 | 1.2% | i | -1.8%
O=C1CCC(c2ccccc2)=NN1c1nc2ccccc2s1
 : i | 3.46e-08 | -2.3%[11.5 µM] | i | 3.1%[11.4 µM]
Cc1onc(COc2ccccc2O)c1Br
 : i | 1e-09 | -0.7% | i | -9.0%
CCN1C(=O)C2C(c3ccc(O)c(OC)c3)NC(C)(C(=O)OC)C2C1=O (stereo not drawn)
 : i | 2.65e-08 | -2.9% | i | -11.8%
Cn1c(OCc2cccnc2)nc2c1c(=O)n(Cc1ccc(Cl)cc1)c(=O)n2C
 : i | 8.18e-08 | . | i | .
CCOc1ccc(-c2nnc(-c3ccco3)o2)cc1OCC
 : i | 1e-09 | -0.3% | i | 7.5%
CC(C)N(CCNC(=O)c1cn(C)c2ccc(S(=O)(=O)N(C)C)cc2c1=O)Cc1ccccc1
 : . | . | 2.2% | . | -1.8%
O=c1n(Cc2ccccc2)c2cc(Cl)cnc2n1Cc1ccccc1
 : i | 5.6e-09 | -0.6% | i | ?
CCOc1cc(C(=O)Nc2cc(C)ccn2)cc(OCC)c1OCC
 : i | 1.24e-08 | -1.9% | i | 2.5%[11.4 µM]
C/C(CC1(O)C(=O)N(Cc2ccccc2)c2ccccc21)=N\O (stereo not drawn)
 : i | 9.33e-08 | . | i | .
O=C(CN1CCN(c2ncccn2)CC1)Nc1ccccc1-n1cccc1
 : i | 2.9e-09 | -1.6% | i | ?
Cc1ccc(C)c(/C(O)=C2/C(=O)C(=O)N(CCN3CCOCC3)C2c2ccco2)c1 (stereo not drawn)
 : i | 2.42e-08 | 5.0% | i | 0.0%
CN(C)C(=O)c1ccc(NC(=O)c2cccnc2)cc1
 : i | 1.79e-08 | 0.3% | i | -0.4%
Cc1c(N2C(=O)c3ccccc3C2=O)c(=O)n(-c2ccccc2)n1C
 : i | 3.66e-08 | 0.7% | i | ?
CCOc1ccc2nc(N3CCCCCC3)sc2c1
 : i | 3.3e-09 | -1.1% | i | 10.9%
CC(=O)OCC1OC(C#CCC2CCCCC2)C=CC1OC(C)=O (stereo not drawn)
 : . | . | -2.8%[11.5 µM] | . | 1.1%[11.4 µM]
NC1(C(=O)O)C[C@@H](C(=O)O)[C@H](C(=O)O)C1
 : . | . | -0.1%&-0.5% | . | 4.0%&0.5%
N#CCCN1CCN(S(=O)(=O)c2ccc(S(=O)(=O)NC3CCCC3)cc2)CC1
 : . | . | 0.3% | . | -14.4%
CN(CC(=O)Nc1ccccc1Cl)C(=O)COC(=O)CNC(=O)c1ccc(Br)o1
 : i | 2.01e-08 | -1.2% | i | -0.7%
CCC1CCc2c(sc(NC(=O)c3ccoc3C)c2C(N)=O)C1 (stereo not drawn)
 : i | 1.24e-08 | 4.9% | i | -3.0%
COc1ccc(NC(=O)CSc2nc(NS(=O)(=O)c3ccccc3)cc(=O)[nH]2)cc1
 : i | 8.5e-09 | 4.0% | i | 0.5%
Cc1cc(C)n(-c2nc(NCc3cccnc3)c3c4c(sc3n2)COC(C)(C)C4)n1
 : i | 2.48e-08 | 2.5% | i | -1.3%
Nc1c(N2CCN(c3ccccc3)CC2)c2ccccc2oc1=O
 : . | . | -1.5% | . | -11.1%[11.4 µM]

(next part)
Values run as follows: Resorufin fluor | A647 fluor | AID923 | A488 autofl | TSHR agonist
Cc1ccc(S(=O)(=O)/N=C/c2ccco2)cc1
 : . | . | 1.6% | . | -2.8%
COC(=O)c1cc(Br)c(=O)n(Cc2ccco2)c1
 : i | 2.7e-08 | . | i | .
COc1ccc(-c2nc3c(c4c2CC(C)OC4)CN(CCC(C)C)CC3)cc1 (stereo not drawn)
 : . | . | 2.2%[11.5 µM] | . | 3.6%[11.4 µM]
C[C@H](CC(=O)O)C(C(=O)O)C(=O)O
 : i | 1.46e-08 | -0.2%[11.5 µM] | i | 0.0%[11.4 µM]
COc1ccccc1-n1c2c(cc(C(=O)N3CCC(C)CC3)c1=O)C(=O)CC(C)(C)C2
 : . | . | 1.4% | . | 2.6%
Nc1ccc(S(=O)(=O)Nc2cnc3ccccc3n2)cc1
 : i | 1e-09&6.7e-09 | 0.2%[11.5 µM] | i | -3.3%[11.4 µM]
CCC(C)(C)NC(=O)C(c1ccccc1F)N(Cc1ccco1)C(=O)Cn1nnc2ccccc21 (stereo not drawn)
 : i | 1e-09 | -1.0% | i | ?
Cc1cc(C)c(NC(=O)CN2CCN3CCCC3C2)c(C)c1 (stereo not drawn)
 : i | 2.1e-09 | -0.8% | i | ?
CCC(=O)N1CCc2cc(S(=O)(=O)CCC(=O)NCc3ccc4c(c3)OCO4)ccc21
 : i | 1e-09 | -0.7% | i | 7.0%
COc1ccc(Oc2ncc3nc(-c4ccc(F)cc4)c(=O)n(CCC#N)c3n2)cc1
 : i | 2.1e-09 | 17.9% | i | -3.1%
Cc1ccc(Cl)cc1N(CC(=O)NC1CCCCC1)S(C)(=O)=O
 : i | 8.7e-09 | -3.4% | i | ?
Cc1c(C(=O)NCc2cccnc2)oc2c1C(=O)CC(C)(C)C2
 : i | 1.8e-09 | 0.2% | i | 11.0%
O=C(Nc1ccccc1)N1CCN(c2nc3ccccc3s2)CC1
 : i | 1.93e-08 | 18.9% | i | ?
Cc1cc(OCC(=O)NCCCN(C)C)cc(C)c1Br
 : . | . | -0.7% | . | ?
Cc1ccc(OCC(=O)Nc2cccc(C)n2)c(C)c1
 : i | 1.89e-08 | 0.6% | i | -0.1%
C=CCn1c(N)c(-c2nc3ccccc3n2C)sc1=S
 : i | 8.6e-09 | 5.4% | i | -20.0%
C[C@H](NCCc1ccc(O)cc1)[C@@H](O)c1ccc(O)cc1
 : i | 2.67e-08&1e-09 | -1.0%[25.7 µM] | i | -16.4%[25.6 µM]
CC(=O)c1cccc(NC(=O)c2cc(C)no2)c1
 : . | . | -2.5% | . | -2.3%
c1ccc(C2(c3ccccc3)OCC(Cn3cncn3)O2)cc1 (stereo not drawn)
 : i | 3.61e-08 | 0.3% | i | 9.6%[11.4 µM]
O=C(c1cnn2c(C(F)F)cc(C3CC3)nc12)N1CCc2ccccc2C1
 : i | 1.66e-08 | -1.0% | i | .
O=C(COc1ccc(Cl)cc1Cl)NCc1ccco1
 : i | 3.38e-08 | 0.7% | i | -11.0%
COc1cccc(Cn2c(=O)cnc3cnc(N4CCN(C)CC4)nc32)c1
 : i | 8e-09 | 3.3% | i | 7.4%
CCOC(=O)c1sc(NC(=O)CNC(=O)Cn2cnc3sc(C)c(C)c3c2=O)nc1C
 : i | 3.9e-09 | 0.2% | i | -1.0%[11.4 µM]
CC(=O)c1ccc(N2C(=O)[C@@H]3C(CCC(N)=O)NC4(C(=O)Nc5c4ccc(Cl)c5C)[C@@H]3C2=O)cc1 (stereo partly drawn)
 : i | 1.27e-08 | 0.6% | i | 0.7%
COc1ccc(S(=O)(=O)N(CC(=O)NC2CC2)C2CCCCC2)cc1Cl
 : i | 6e-09 | -0.9% | i | 0.3%
COc1ccc(C(=O)/C(C)=N/O)cc1OC
 : . | . | -0.6% | . | -6.6%
Cc1ccc(C(=O)Nc2c3c(nn2C(C)(C)C)CS(=O)(=O)C3)cc1C
 : i | 1e-09 | -0.1% | i | 10.5%
CN(C)C(=O)c1ccc(-c2cncnc2Nc2ccccc2)cc1
 : i | 4.65e-08 | 6.1% | i | -0.1%
CNC[C@H](O)c1cccc(O)c1
 : i | 2.4e-09&6.23e-08 | 0.1% | i | .
CCOc1ccc(NC(=O)CN(C)CC(=O)NC2CCCc3ccccc32)cc1OCC (stereo not drawn)
 : i | 1e-09 | -1.2% | i | -1.0%
COc1ccc(C(=O)Nc2ccccc2NC(=O)c2ccco2)cc1OC
 : i | 4.17e-08 | 0.0% | i | 0.2%
COc1ccc(NC(=O)CCS(=O)(=O)c2cccc3nonc23)c(OC)c1
 : i | 2.19e-08 | 0.4% | i | -3.0%
O=C(Cn1nnc(-c2cccs2)n1)N1CCc2ccccc2C1
 : i | 1.25e-08 | -0.3% | i | 9.9%
CCC(CC)C(=O)Nc1cccc(-c2nc3ccccc3o2)c1
 : i | 1e-09 | -0.8% | i | 6.31µM*
CCC(C)C(=O)Nc1nc2c(s1)C(=O)CC(C)(C)C2 (stereo not drawn)
 : . | . | 0.2% | . | -3.0%

Some of the compounds tested (hit frequency here may not be typical).
